Bioassay records from PubChem.
D2 potentiator: Beta-Arrestin HTS for Positive Allosteric Modulators of the Human D2 Dopamine Receptor: Potentiators; AID 624464, 2012; D(2) dopamine receptor (Homo sapiens), P14416; actives 0.23% (n = 360,000); potentiation, % (test concentration not listed); DiscoveRx D2 beta-arrestin cells, luminescence, 90 min; 100% = 57 uM dopamine signal; active = potentiation of 50% or more; inconclusive = 30% to 50%; inactive = 30% or less;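 note: compound concentration not given in the record; tested on top of an EC20 dose of dopamine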
Target sequence (P14416 whole entry, looked up): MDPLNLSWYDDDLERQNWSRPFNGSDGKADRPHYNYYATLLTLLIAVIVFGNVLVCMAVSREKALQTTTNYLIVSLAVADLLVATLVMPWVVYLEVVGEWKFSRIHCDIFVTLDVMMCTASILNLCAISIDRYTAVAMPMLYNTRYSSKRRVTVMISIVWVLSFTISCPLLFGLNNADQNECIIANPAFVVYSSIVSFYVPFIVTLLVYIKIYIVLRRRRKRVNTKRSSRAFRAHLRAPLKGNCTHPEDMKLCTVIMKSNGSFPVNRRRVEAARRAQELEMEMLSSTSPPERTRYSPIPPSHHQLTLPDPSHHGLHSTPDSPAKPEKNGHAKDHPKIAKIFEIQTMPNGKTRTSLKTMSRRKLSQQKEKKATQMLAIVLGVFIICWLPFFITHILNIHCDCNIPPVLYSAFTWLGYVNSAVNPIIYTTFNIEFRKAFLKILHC
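D2 cells co-treated with compound plus 50 nM dopamine (EC20) for 90 min at 37 deg C to detect potentiation. Beta-arrestin recruitment was read as enzyme-fragment luminescence after 1 h at ambient temperature. Full response was set by 57 uM dopamine.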
PINK1 expr mod: A Quantitative High throughput Screen to Identify Chemical Modulators of PINK1 Expression. PINK1 immunofluorescence, high-content cytometry, 24 h. Potency, µM (titrated, usually from 76.6 µM), for the others: top-dose activation (PINK1 increase), usual class: activators. actives 0.2% (n = 410,000); active = well fitted activation curve with a large enough effect; inconclusive = small, poorly fitted or top-dose-only effect; inactive = flat fitted curve, though single readings scatter; cell line not stated here;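 note: potency is the fitted concentration of half-maximal effect; % of control where 0% means no effect; nearly all actives have a fitted effect of over 65% in size; a mitochondrial uncoupler was the plate control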
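Stable cell line treated 24 h with compounds at 5 concentrations (CCCP controls), then fixed and immunostained for PINK1 plus nuclear and cell stains; PINK1 immunofluorescence quantified by laser-scanning microplate cytometry.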
D2 ag: Beta-Arrestin HTS for Positive Allosteric Modulators of the Human D2 Dopamine Receptor: Agonists; actives 0.084% (n = 360,000); activation, % (no concentration beside the values); DiscoveRx PathHunter D2 beta-arrestin, luminescence, 90 min; 100% = 57 uM dopamine signal; D(2) dopamine receptor (Homo sapiens), P14416; in the data active = activation above about 40%; inconclusive = about 15% to 40%; inactive = below about 15%; note: compound concentration not given in the record; the text of the record calls up to 30% inactive
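Agonist mode: compounds alone added to overnight-plated D2 PathHunter cells for 90 min at 37 C, with 57 uM final dopamine (EC100) defining full response. Beta-arrestin recruitment detected by chemiluminescent reagent, read after 1 h at ambient temperature.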
CtBP-E1A blk: qHTS Assay for Inhibitors of the CtBP/E1A Interaction. AlphaScreen GST-E1A/His-CtBP binding, 1536-well; stronger effect = lower value; control for the full effect not named in the record. actives 0.49% (n = 340,000). AID 651724, 2012. activity change, % (concentration not given with the values); in the data active means activity change below about -65%; inconclusive means about -30% to -65%; inactive means above about -30%; note: % is set by controls: 0 for no effect and ±100 for the full control effect
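In 5 uL wells, 23 nL compound meets equimolar GST-E1A and His-CtBP (5X stock 125 nM each) for 2 h, 37 °C. Beads (5X, 50 ug/mL) then 1 h, 37 °C, dark.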
Six1-Eya2 blk: qHTS Assay for Inhibitors of the Six1/Eya2 Interaction. AlphaScreen GST-Six1/His-Eya2 binding, biochemical; stronger effect = lower value; control for the full effect not named in the record. activity change, % (test concentration not listed). actives 0.56% (n = 360,000). AID 651725, 2012; in the data active = activity change below about -65%; inconclusive = about -30% to -65%; inactive = above about -30%; note: % is set by controls: 0 for no effect and ±100 for the full control effect; compound concentration not given in the record
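Compounds are tested against tagged Six1 and Eya2 proteins bridged by glutathione donor and nickel acceptor beads; after a one-hour incubation at 37 °C without light, AlphaScreen emission is recorded.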
Sfp PPTase inh: qHTS Assay for Inhibitors of Bacillus subtilis Sfp phosphopantetheinyl transferase (PPTase); Potency, µM, inactives show max response, negative = inhibition, usual class: inhibitors; 4'-phosphopantetheinyl transferase ffp (Bacillus subtilis), Q9F4F7; Biochemical Sfp PPTase activity, qHTS; AID 1490, 2009; actives 3.5% (n = 310,000); active = well fitted inhibition curve with a large enough effect; inconclusive = small, poorly fitted or top-dose-only effect, or another doubt; inactive = no such curve, though single readings can be large or run the other way;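 note: the enzyme is Sfp with the accession as filed and its product quenches rhodamine fluorescence; potency is the fitted concentration of half-maximal effect; 0% = enzyme reaction without inhibitor and -100% = no enzyme wells; top concentration of the series not given in the record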
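Step 1, compound plus 15 nM Sfp-PPTase, 15 min, room temperature. Step 2, add rhodamine-CoA (5 uM) and BHQ-2-YbbR (12.5 uM). Step 3, read 525/598 nm fluorescence at 0 and 30 min.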
TRPV1 potentiator: HTS Assay for Compounds that Act as Potentiators of the Vanilloid Receptor 1. Transient receptor potential cation channel subfamily V member 1 (Homo sapiens), Q8NER1. TRPV1-expressing cells, Fluo-8 calcium influx, capsaicin EC20 potentiation; host cell line not named in the record; control for the full effect not named in the record. potentiation, % at 8.33 µM. actives 0.02% (n = 320,000). AID 540277, 2011; active means potentiation above 80%; inconclusive means 30% to 80%; inactive means below 30%; note: 0% is about no effect
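Cells expressing TRPV1 were dye-loaded with Fluo-8 and read kinetically: 10 s baseline, 3 min after compound (agonist portion), then 2 min after EC20 capsaicin (allosteric enhancer portion). Calcium-bound dye fluorescence at 480/520 nm.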
The depositor's hits bear a star; ? = inconclusive; . = no result given; & = joins results of further samples; [ ] = remark or other dose.

structure | D2 potentiator | PINK1 expr mod | D2 ag | CtBP-E1A blk | Six1-Eya2 blk | Sfp PPTase inh | TRPV1 potentiator
Cc1ccc(NC(=O)c2c(C)nc(Nc3nc4ccccc4o3)nc2C)cc1 | -4.1 | 4.2% | -2.1 | 0.5 | 2.6 | 7.4% | -3.7
O=C(CN1CCN(S(=O)(=O)c2ccccc2)CC1)NC(=O)NC1CCCCC1 | -2.3 | -0.7% | -2.3 | 1.8 | 2.2 | -8.2% | 4.8
CCOC(=O)C1(CC)NC(c2ccc(OC)c(OC)c2)C2C(=O)N(c3cccc(C(C)=O)c3)C(=O)C21 (stereo unspecified) | 3.8 | 3.1% | -0.9 | 2.7 | 2.2 | 13.6% | 9.5
O=C(Cn1c(=O)oc2ccccc21)Nc1nc(-c2ccc(Br)cc2)cs1 | -23.2 | 16.3% | 0.1 | 18.3 | 4.0 | -4.7% | -23.4
S=c1[nH]nc(Nc2cccc3ccccc23)s1 | -15.2 | 1.1% | 2.5 | 3.2 | -11.5 | 39.8µM* | 14.1
CC(NCc1cccc(OCc2ccccc2)c1)C(O)c1ccccc1 (stereo unspecified) | -19.5 | 0.1% | -8.8 | . | 4.0 | 16.3% | 6.3
CCOC(=O)C1CCN(C(=O)C2(NC(=O)Nc3ccc(F)cc3F)CCCCC2)CC1 | -8.5 | 4.9% | -0.8 | 16.8 | 9.0 | 18.2% | -6.1
O=C1Nc2ccccc2N=C(c2ccccc2)c2ccccc21 | -4.5 | 0.9% | 0.0 | -4.4 | -8.3 | -0.4% | 3.3
COc1ccccc1CNC(=O)c1c(N)n(CCCN2CCOCC2)c2nc3ccccc3nc12 | -2.4 | -2.1%[38.3 µM] | 4.1 | -12.1 | -4.9 | 56.2µM* | -17.0
COc1ccc([C@@H]2[C@@H]3C(=O)N(C(C)(C)C)C(=O)[C@@H]3[C@]3(Cc4ccccc4)C(=O)N(c4cccc(C)c4)C(=O)N23)cc1 | -5.3 | 2.0% | -6.3 | -0.4 | 0.0 | . | 16.4
CCOc1cc(CNC2CCCC2)cc(Cl)c1OCc1ccc(F)cc1 | -8.1 | . | -1.8 | 0.5 | 8.1 | 39.8µM* | 6.0
Cc1cc(N=Cc2cc(Cl)ccc2O)no1 | -3.0 | -1.6%[38.3 µM] | -2.6 | -12.3 | -2.0 | 12.5% | -19.1
O=C(NCc1ccco1)c1cccc(NS(=O)(=O)c2ccccc2F)c1 | 1.4 | -1.3% | -2.1 | -1.2 | 8.0 | -15.3% | 10.3
CSc1ccc(CN2CCC(n3nccc3NC(=O)CCCc3ccccc3)CC2)cc1 | -39.2 | -1.4% | -3.6 | -3.6 | -9.6 | 8.6% | 4.5
O=C(Cc1cc(=O)[nH][nH]1)N/N=C/c1c(F)cccc1Cl | -1.4 | -0.6% | -0.9 | 0.0 | 6.8 | 15.8% | -0.1

Next section:
structure | D2 potentiator | PINK1 expr mod | D2 ag | CtBP-E1A blk | Six1-Eya2 blk | Sfp PPTase inh | TRPV1 potentiator
CCCCNC(=O)c1cc2c(=O)n3cccc(C)c3nc2n(Cc2ccncc2)c1=N | -6.6 | ? | -3.1 | 0.0 | -2.6 | -0.5% | -24.0
Nc1cc(C(=O)OCC(=O)NNC(=O)c2ccccc2)ccc1Cl | 4.4 | -2.0% | -3.7 | 1.5 | 6.1 | . | 11.2
CCN1C(=O)C(c2ccc(O)cc2)(c2ccc(O)cc2)c2ccccc21 | -0.6 | -0.5% | -0.3 | 2.5 | 3.4 | -4.5% | 8.0
Cn1cc(CN2CCC(C(O)c3cccs3)CC2)c(-c2cccc(Cl)c2)n1 (stereo unspecified) | -10.5 | -1.5% | 0.4 | -9.7 | 6.8 | -12.0% | -19.6
CCc1ccc(OC(=O)Cc2ccc(OC)c(S(=O)(=O)N3CCOCC3)c2)cc1 | -0.4 | -0.8% | 9.2 | -1.8 | -2.8 | . | -0.6
COc1ccc(C2Oc3ccccc3N2C(C)=O)cc1 (stereo unspecified) | 1.9 | -2.0% | -1.4 | 0.1 | -0.4 | 10.3% | 29.5
O=C(CNS(=O)(=O)c1ccc2ccccc2c1)Nc1ccc(F)c(F)c1F | 2.4 | 6.8% | -0.5 | -3.0 | -0.3 | . | -15.7
COc1cccc(CC(=O)N2CCC(n3nccc3NC(=O)C3CC3)CC2)c1 | -12.0 | -0.4% | -1.8 | 3.1 | 1.1 | 16.2% | 2.6
N=c1c(S(=O)(=O)c2ccc(Br)cc2)cc2c(=O)n3ccccc3nc2n1Cc1ccco1 | -12.5 | ? | -3.0 | . | -5.5 | -3.1% | -13.3
Cc1c(C)c(C)c(S(=O)(=O)NCCc2ccncc2)c(C)c1C | -4.3 | 1.4% | -3.7 | 16.1 | 4.4 | 1.0% | -0.9
Nc1ncnc2c1ncn2[C@@H]1O[C@H](CNC(=O)[C@@H](N)COCc2ccccc2)[C@@H](O)[C@H]1O | -1.7 | 1.4% | -1.9 | 3.3 | 2.0 | . | .
COc1ccc(/C=C(\NC(=O)c2ccc([N+](=O)[O-])cc2)C(=O)NCCCn2ccnc2)cc1 | -1.6 | 1.5% | -1.3 | -10.1 | -6.0 | 17.8% | -4.8
CCn1c(COc2ccc(C)cc2)nnc1SCC(=O)NCc1ccco1 | 1.4 | 2.1% | 0.2 | 0.0 | 10.7 | 13.8% | -2.9
COc1ccccc1-n1c(N)c(C(N)=O)sc1=S | -5.1 | -2.1% | -0.5 | -0.1 | -2.6 | ? | .
Cc1nn(-c2ccccc2)c2sc(C(=O)NNC(=O)COc3ccccc3)cc12 | -10.0 | ? | -6.0 | ? | ? | -20.3% | -2.0

3 structures out of the list, arranged by SMILES length, largest number first.
structure | D2 potentiator | PINK1 expr mod | D2 ag | CtBP-E1A blk | Six1-Eya2 blk | Sfp PPTase inh | TRPV1 potentiator
CCCCNC(=O)c1cc2c(=O)n3cccc(C)c3nc2n(Cc2ccncc2)c1=N | -6.6 | ? | -3.1 | 0.0 | -2.6 | -0.5% | -24.0
Cn1cc(CN2CCC(C(O)c3cccs3)CC2)c(-c2cccc(Cl)c2)n1 (stereo unspecified) | -10.5 | -1.5% | 0.4 | -9.7 | 6.8 | -12.0% | -19.6
COc1cccc(CC(=O)N2CCC(n3nccc3NC(=O)C3CC3)CC2)c1 | -12.0 | -0.4% | -1.8 | 3.1 | 1.1 | 16.2% | 2.6

Other records:
structure | D2 potentiator | PINK1 expr mod | D2 ag | CtBP-E1A blk | Six1-Eya2 blk | Sfp PPTase inh | TRPV1 potentiator
CCn1c(SCC(=O)NCC(=O)Nc2ccc(F)cc2)nnc1-c1ccncc1 | -16.5 | -1.6% | -1.3 | 0.5 | 2.6 | 4.6% | -0.8
Cc1ccc(S(=O)(=O)N(CC2CO2)c2ccccc2[N+](=O)[O-])cc1 (stereo unspecified) | -1.4 | 9.5% | -4.7 | 0.4 | -0.5 | 16.0% | 5.1
CCc1nc(NCCC(C)C)c2nnn(Cc3ccccc3)c2n1 | 19.5 | 6.3% | -2.1 | . | 1.6 | 8.5% | -3.3
CN1C(C(=O)Nc2ccc(F)cc2F)=CC(c2ccco2)=NS1(=O)=O | -1.2 | 2.3%&0.3% | -6.5 | -20.2 | -23.5 | 17.8% | 11.1
CCOC(=O)Cn1nc(C)n(-c2cccc(Cl)c2)c1=O | -0.5 | 1.1% | 3.4 | 1.6 | 2.6 | -15.1% | 9.4
O=C(NC1CCN(C(=O)NCc2ccccc2)CC1)c1ccc(F)cc1 | -7.9 | 2.2% | 2.4 | 6.3 | 2.0 | 18.5% | -0.6
Cc1ccc(C(O)c2ncc(-c3cccc4ccccc34)[nH]2)cc1F (stereo unspecified) | -14.9 | 4.5% | -2.6 | -6.9 | -10.9 | . | .
CCOC(=O)C1=C(COC(=O)c2ccc(OC(C)C)cc2)NC(=O)NC1C (stereo unspecified) | 3.1 | -3.8% | -1.6 | 4.9 | -1.0 | . | 7.7
CN(C)c1ccc(NC(=S)N(CCc2ccccc2)C2CC(=O)N(c3c(Cl)cccc3Cl)C2=O)cc1 (stereo unspecified) | -3.9 | 0.3% | -1.2 | -12.5 | -10.7 | -2.7% | 5.8
CSCCC(NC(=O)OC(C)(C)C)C(=O)Oc1ccc2c(=O)c(-c3ccc4c(c3)OCCO4)coc2c1 (stereo unspecified) | -5.0 | 2.2% | -5.3 | -7.2 | 2.8 | ? | 4.9
O=C(Nc1ccc(N2CCOCC2)cc1)c1cccc(-n2cnnc2)c1 | -10.2 | -0.3% | -7.0 | -8.0 | -12.7 | 9.8% | -26.3
O=c1cc(Cl)[nH]c(=O)n1Cc1ccccc1 | -1.8 | 1.6% | -3.7 | -5.3 | 6.7 | 12.8% | 0.4
CC1CC(C)(C)NC(=S)N1CCC(=O)N1CCN(Cc2ccccc2)CC1 (stereo unspecified) | -4.5 | 0.6% | -1.5 | 8.5 | 1.1 | -10.7% | 1.8
O=C(Nc1cccc(NC(=O)c2nccc3ccccc23)c1)c1ccco1 | 1.2 | . | -2.6 | -7.8 | -10.8 | 0.9% | 10.1
O=C(COc1ccccc1F)Nc1cc(S(=O)(=O)N2CCOCC2)ccc1N1CCOCC1 | -1.1 | 2.7% | -0.1 | 2.2 | 1.5 | 5.5% | -1.5

Carrying on:
structure | D2 potentiator | PINK1 expr mod | D2 ag | CtBP-E1A blk | Six1-Eya2 blk | Sfp PPTase inh | TRPV1 potentiator
COc1cccc(C(=O)NC2CCCc3c2cnn3-c2ccc(C)c(C)c2)c1OC (stereo unspecified) | -3.8 | -1.4% | -2.9 | 1.2 | -5.5 | -5.4% | -0.1
Cc1cccc(C)c1NC(=O)C1(C)CCC(=O)N1C1CC1 (stereo unspecified) | -5.0 | -0.2% | -2.8 | 5.3 | 3.7 | . | .
COc1ccc(NC(=O)N2CCC(c3ccccc3)C2)c(OC)c1 (stereo unspecified) | -2.4 | 0.5% | -4.8 | -0.2 | -8.7 | -7.8% | .
COc1cc2c(cc1OC)C(O)=CC(=O)C2=O | -3.0 | 3.9% | -3.6 | 0.6 | -18.7 | . | .
O=C(Nc1cccnc1Cl)c1cccc(S(=O)(=O)N2CCOCC2)c1 | -17.6 | 0.8% | -2.6 | -3.8 | -5.6 | 5.2% | -6.3
